Screens: PubChem, several laboratories
Mtb hypoxia rep = Mtb hypoxia fluorescent reporter inhibition; 300,000 compounds, 0.1% hits; M. tuberculosis hypoxia-regulated fluorescent reporter, fluorescence; fluorescence inhibition, % (test concentration not listed);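 active = 35 to 45% if threefold the growth effect, above 45% if 1.5-fold the growth effect; inactive = the rest, general growth blockers included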;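 also: wells of about 50 µL received 100 nL stock; 0% = vehicle wells and 100% = reference inhibitor wells; whole bacteria with a GFP reporter of the hypoxia response; strong numbers were not always called active; many hits fall short of the cut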
RN4220 kill = kills Staphylococcus aureus RN4220; S. aureus RN4220 growth, OD600, 16 h; inhibition, % (no concentration beside the values); 330,000 compounds, 0.33% hits;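 active = z-score of -3 or lower and OD600 up to 0.18 on both plates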;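 also: plate controls were untreated cells for no effect and reference antibiotic for full effect; stock transfer was 100 nL into about 80 µL; one replicate is shown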
ugtP null kill = kills S. aureus RN4220 lacking UgtP; 330,000 compounds, 0.54% hits; S. aureus RN4220 ugtP deletion, OD600 growth, 16 h; some inactives read as strong as hits; AID 1259309; growth inhibition, % (no concentration beside the values);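 active = z-score under -3 and OD600 up to 0.15 on both plates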;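 also: plate controls were untreated wells for no effect and antibiotic for full effect; wells of about 80 µL received 100 nL stock; the first replicate is given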
BJeLR viability = kills HRASV12-expressing BJeLR cells; BJeLR (HRASV12) viability, CellTiter-Glo ATP luminescence, 48 h; reference of the scale not given here; inhibition, % (concentration not given with the values); 300,000 compounds, 0.17% hits; AID 1554;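 active = replicate mean above 50%; inconclusive = above 50% but judged a plate artefact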;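 also: 50 nL library stock added to about 25 µL; numbers are from one replicate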
Bead autofluor = compound fluorescence in toxin protease inhibitor counterscreen; AID 624483; compound autofluorescence counterscreen, microsphere flow cytometry; hits give high values; fluorescence intensity (test concentration not listed); 360,000 compounds, 3.1% hits;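 active = at least 3 SD above the mean of all compounds, about 16000 in these data; inconclusive = too few beads counted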;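 also: 100 nL of 1 mM stock went into each well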
PrP UTR inh = suppresses PrP 5' UTR mRNA reporter expression. inhibition, % (no concentration beside the values). cell-based PrP 5' UTR mRNA reporter, plate reader. 340,000 compounds, 0.35% hits. AID 488862;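 active = every replicate at 50% or more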;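 also: 0 = median of the neutral control wells; tested in H4 reporter cells; numbers are from one replicate; inactives centre near -14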
Mtb hypoxia rep growth = further read-out of Mtb hypoxia rep, marked with its call; growth inhibition, %; measured here: M. tuberculosis growth (absorbance);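 0% = vehicle and 100% = reference antibiotic; read after six days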
Active calls of the source: *; u = inconclusive; x = no result given. Rows are unselected; any-hit rate near 4%.

SMILES | Mtb hypoxia rep | Mtb hypoxia rep growth | RN4220 kill | ugtP null kill | BJeLR viability | Bead autofluor | PrP UTR inh
O=C(O)C1CC(O)CN1C(=O)c1ccco1 (stereo not drawn) | 3 | 4 | -1.4 | 4 | -2 | 8367 | -11
CCOc1ccc(NC(=S)N(CC)Cc2ccccc2)cc1 | 4 | 5 | 2.3 | 1 | 0 | x | x
CCOC(=O)C(=NNc1ccccc1Cl)N1CCN(Cc2ccccc2)CC1 | 6 | 10 | 3.2 | 12 | x | x | x
Cc1cccn2c(=O)c3cc(C(=O)NC4CCCCC4)c(=N)n(Cc4ccc(F)cc4)c3nc12 | -2 | 9 | -4.9 | -10 | -15 | 4893 | -16
CN(CC(=O)Nc1sccc1C#N)Cc1ccccc1 | 5 | -4 | 4.7 | 2 | 9 | 9959 | -22
COC(=O)[C@H]1[C@H]2C[C@@H]3c4[nH]c5cc(OC)ccc5c4CCN3C[C@H]2C[C@@H](OC(=O)c2ccc(N)cc2)[C@@H]1OC | -11 | 3 | -1.2 | -3 | 0 | 4729 | -3
CCCCn1c(SCC(=O)NCCc2ccc(OC)c(OC)c2)nc2c1c(=O)n(C)c(=O)n2C | -4 | 7 | 1.8 | -2 | 2 | 22602* | -6
CCOc1ccc(S(=O)(=O)N2CCN(C3CC(=O)N(c4cccc(C(C)=O)c4)C3=O)CC2)cc1 (stereo not drawn) | 5 | 8 | 5.0 | 4 | x | 3977 | -9
CCOc1cc(-c2c(C)c(CC)nc(N)c2C#N)ccc1O | x | x | 0.4 | -6 | 4 | 4602 | -1
CC1(C)CC(=O)C2=C(C1)Nc1[nH]c(=S)[nH]c(=O)c1C2c1ccccc1 (stereo not drawn) | x | x | 4.2 | -5 | 1 | 3348 | -9
CCOc1ccc(CN2CCN(Cc3[nH]c4ccc(OC)cc4c3C)CC2CCO)cc1 (stereo not drawn) | 3 | 2 | -4.0 | -7 | -3 | 3564 | -14
C/C(Cl)=C\Cn1c(N2CCCCCC2)nc2c1c(=O)n(C)c(=O)n2C | 3 | -2 | 4.1 | 9 | x | 3610 | -10
CCOc1cc(CNc2ccc(N(C)C)cc2)cc(Br)c1OCC(=O)NC(C)(C)C | x | x | x | x | -9 | 2520 | -29
Cc1cc(O)c(CN2CCN(S(=O)(=O)c3cccs3)CC2)cc1C(C)C | 6 | 3 | 4.0 | 15 | x | u | -18
C=CCn1c(CCNC(=O)c2cccs2)nnc1SCC(=O)Nc1cccc(C(C)=O)c1 | 7 | 6 | -10 | 2 | -2 | 3386 | -23
CCOC(=O)C1C(c2ccc(O)c(O)c2)NC(=S)NC1(O)C(F)(F)F (stereo not drawn) | -4 | 3 | 1.2 | -1 | -3 | 2508 | -16
Cc1cccc(C(=O)Nc2cccc(C(=O)NC3CCCC3)c2)c1 | 9 | -1 | 8.0 | 12 | -16 | 6373 | -27
O=C(COC(=O)c1ccccc1O)Nc1cccc2ccccc12 | 10 | -2 | 2.0 | 4 | x | x | -8
COc1ccc(C(=O)Nc2ccc(OC)c(OC)c2)cc1 | 5 | 6 | -1.5 | 7 | 0 | 11086 | -67
Cc1ccccc1CSc1nnc(-c2ccncc2)n1C | 6 | -4 | 4.2 | 13 | 3 | 3298 | -7
O=C(CSc1n[nH]c(=O)[nH]c1=O)c1ccccc1 | x | x | -3.3 | 1 | 5 | 2157 | -5
CCOC(=O)c1nc(NCc2cccnc2)c2ccccc2n1 | -4 | 11 | -0.7 | 1 | 3 | 8136 | -12
C=CCn1c(=C(C#N)c2nnc3n2CCCCC3)sc(=Cc2ccc(F)cc2)c1=O | 4 | 4 | 1.4 | -2 | x | x | x
CCOc1cc(C2CC(=O)Nc3cc(C)c(C)cc32)ccc1O (stereo not drawn) | x | x | 7.6 | 2 | -7 | 3713 | 13
O=C(NC(=S)NNC(=O)c1ccccc1[N+](=O)[O-])c1ccccc1 | 2 | 11 | 22 | -8 | -1 | 3110 | -3
Cc1ccc(CSc2ncnc3onc(C)c23)cc1 | 19 | 4 | 6.1 | 22 | -3 | 4201 | -10
CCCCCCCNC(=O)C1(CC2CC(c3ccc(Cl)cc3)=NO2)CCN(C(=O)OC(C)(C)C)CC1 (stereo not drawn) | 3 | -2 | 2.5 | 10 | 1 | 4533 | -6
COc1ccc(NC(=O)Cn2c3ccc(OC)cc3c3nc4n(c(=O)c32)CCS4)cc1 | 3 | -13 | 3.8 | 10 | 0 | 4547 | -6
O=C(Nc1cc(=O)[nH]c2ncnn12)c1ccccc1Cl | -1 | 8 | 5.2 | 4 | 1 | 16504* | -9
O=C(COC(=O)c1cncc(Br)c1)NCc1ccc2c(c1)OCO2 | 2 | 2 | 15 | 0 | -1 | 5135 | -3
CC(C)(C)c1ccc(OCCCC(=O)Nc2ccc(S(N)(=O)=O)cc2)cc1 | 9 | 5 | 3.6 | 4 | 4 | 2631 | -22
C[C@H](CO)N1C[C@H](C)[C@@H](CN(C)S(=O)(=O)c2ccc(F)cc2)Oc2c(NS(=O)(=O)c3ccccc3)cccc2C1=O | 4 | 5 | 5.6 | 4 | x | 3859 | 47
CCOCCCNc1nc2ccccc2[nH]1 | 11 | 4 | 1.2 | -2 | -2 | 2975 | -42
Cc1ccc(-n2cc(-c3ccccc3)c3c(NN4CCOCC4)ncnc32)cc1 | 0 | 2 | 4.7 | -1 | -4 | 10811 | -9
COc1ccc(O)c(CN2CCCC(N3CCc4ccccc4C3)C2)c1 (stereo not drawn) | -5 | 7 | 3.2 | 12 | -1 | 3829 | -10
CCCC1COCCS(=O)(=O)N1Cc1ccccc1 (stereo not drawn) | 0 | 5 | 4.0 | 1 | x | x | x
Cc1ccc(CNC(=O)CCNC(=O)c2ccc([N+](=O)[O-])cc2)cc1 | 5 | 12 | -0.3 | 6 | x | 5013 | -7
O=C(Oc1ccccc1C(=S)N1CCOCC1)c1ccc([N+](=O)[O-])cc1[N+](=O)[O-] | 11 | 9 | -0.2 | 14 | 2 | 3759 | -18
COc1ccc(S(=O)(=O)N2CCC(N3CCCC3)CC2)cc1 | 13 | 5 | 3.9 | 5 | 4 | 5551 | -12
CCN(CC)S(=O)(=O)c1ccc(C(=O)NCCSc2c[nH]c3ccccc23)cc1 | 5 | 12 | -12 | -14 | 11 | 5355 | -22
COc1cccc2cc(C(=O)N(C)C)c(=O)oc12 | 5 | 4 | 2.7 | 13 | 13 | 6545 | -11
Cc1ccc(S(=O)(=O)N=Nc2c(O)[nH]c3ccccc23)cc1C | 0 | -5 | 1.0 | 0 | 2 | 3543 | -8
CCn1c(SC)nc2c(c1=O)SC(C)C2 (stereo not drawn) | -4 | 4 | 1.0 | -4 | -16 | 9224 | -1
Cc1nnc(C)n1/N=C/c1cc(Br)ccc1O | x | x | x | x | 6 | 2950 | -30
CCCc1nc2ccccc2c(C(=O)OCC(=O)NCc2ccc3c(c2)OCO3)c1CC | 5 | 4 | -5.8 | 0 | 4 | 2241 | -20
O=C(c1ccc(-c2cccc(C(F)(F)F)c2)o1)N1CCCCCCC1 | 3 | 8 | 6.1 | -4 | -6 | u | -6
CN1CCC(N(C)C(=O)/C(C#N)=C\c2ccc(OC(F)F)cc2)CC1 | 10 | 2 | 7.7 | 15 | x | 2812 | 2
COc1cnc(-c2ccccc2)nc1Oc1cccc(C)c1C | x | x | -4.2 | 8 | -7 | 2691 | 12
COc1ccc(N2CCN(CNC(=O)c3ccccc3)CC2)cc1 | 11 | 7 | 2.2 | 8 | 9 | 3474 | -23
Cc1cc2c(cc1C)NC(CC(=O)NCc1ccccc1)C(=O)N2 (stereo not drawn) | 4 | 14 | 4.3 | 2 | 7 | 23973* | -69
COc1cc(C=NNC(=O)c2ccccn2)ccc1OC(=O)c1ccc(Br)cc1 | 3 | 6 | -0.5 | 2 | x | x | x
CCOc1ccc(S(=O)(=O)Nc2ccc(C(=O)NCC(C)(C)N3CCOCC3)cc2)cc1 | -4 | -1 | 4.0 | 12 | -8 | 5847 | -9
COc1ccc(NC(=O)C2Cc3ccccc3O/C2=N\O)cc1 (stereo not drawn) | x | x | x | x | -1 | 3396 | -33
CC(C)n1cc(CN2CCN(CCc3ccccc3)C(CCO)C2)cn1 (stereo not drawn) | -3 | 10 | -1.5 | 4 | 0 | 5787 | -19
COc1ccc(NC(=O)CSc2nnc(C)n2N)cc1S(=O)(=O)N1CCCCC1 | -3 | -7 | -1.7 | 0 | x | 3009 | 3
O=C(NCC(=O)N(c1ccc(F)cc1)C(C(=O)NC1CCCC1)c1ccncc1)c1ccco1 (stereo not drawn) | 5 | 6 | 2.5 | 15 | -5 | 5172 | -26
O=C(O)/C=C/c1cnc2ccccc2n1 | 10 | 9 | 10 | 7 | -14 | 4356 | -8
CCCC(C)NS(=O)(=O)c1ccc(OC)c(C)c1 (stereo not drawn) | 10 | 9 | 7.7 | 4 | -8 | u | -11
CCC(C)C(NC(N)=O)C(=O)Nc1ccc(S(=O)(=O)Nc2ccc(OC)cc2)cc1 (stereo not drawn) | -2 | 4 | 1.8 | -2 | 3 | 5107 | -4
O=c1[nH]c(=O)n(-c2ccc(Br)cc2)c(O)c1C=NCCN1CCCCC1 | 13 | 13 | 4.7 | 11 | -7 | 3543 | -14

Complete entries as entered above. Values in the order: Mtb hypoxia rep | Mtb hypoxia rep growth | RN4220 kill | ugtP null kill | BJeLR viability | Bead autofluor | PrP UTR inh
`CCC(C)C(NC(N)=O)C(=O)Nc1ccc(S(=O)(=O)Nc2ccc(OC)cc2)cc1` (stereo not drawn) is entered as -2 | 4 | 1.8 | -2 | 3 | 5107 | -4
`COc1cnc(-c2ccccc2)nc1Oc1cccc(C)c1C` is entered as x | x | -4.2 | 8 | -7 | 2691 | 12
`COc1ccc(NC(=O)CSc2nnc(C)n2N)cc1S(=O)(=O)N1CCCCC1` is entered as -3 | -7 | -1.7 | 0 | x | 3009 | 3
`O=C(NCC(=O)N(c1ccc(F)cc1)C(C(=O)NC1CCCC1)c1ccncc1)c1ccco1` (stereo not drawn) is entered as 5 | 6 | 2.5 | 15 | -5 | 5172 | -26
`COc1ccc(NC(=O)C2Cc3ccccc3O/C2=N\O)cc1` (stereo not drawn) is entered as x | x | x | x | -1 | 3396 | -33

Carrying on:
SMILES | Mtb hypoxia rep | Mtb hypoxia rep growth | RN4220 kill | ugtP null kill | BJeLR viability | Bead autofluor | PrP UTR inh
Cc1cccc(CNC(=O)CC2C(=O)NCCN2C2CCCC2)c1 (stereo not drawn) | x | x | x | x | 9 | 6077 | 11
CCOC(=O)c1c(-n2c(C)cc(/C=C3\C(=O)NC(=O)N(C)C3=O)c2C)sc2c1CCCC2 | 4 | 4 | 0.2 | -5 | -6 | 3581 | -21
CN1c2ccccc2Oc2ccccc21 | 2 | -3 | 6.4 | 3 | -22 | 2627 | -23
Cc1ccc(NC(=O)COC(=O)C2(C)CC2(Cl)Cl)cc1S(=O)(=O)N1CCOCC1 (stereo not drawn) | 2 | 8 | 4.0 | 1 | x | u | -10
O=C(COC(=O)c1cc(Cl)ccc1O)Nc1ccc2c(c1)OCCO2 | 11 | -2 | 4.2 | -1 | x | 3945 | -25
COc1ccc(C)cc1S(=O)(=O)NC1CCCCC1C (stereo not drawn) | 1 | 8 | 14 | -1 | -2 | 3200 | -5
CCOC(=O)N1CCN(CC(O)COc2c(OC)cccc2OC)CC1 (stereo not drawn) | x | x | -0.7 | 12 | 0 | 2412 | -17
CC(=O)c1cccc(S(=O)(=O)NCCC(=O)Nc2ccc(S(N)(=O)=O)cc2)c1 | 11 | 3 | 4.9 | 4 | 5 | 3610 | -25
CC(C)Cc1cc(C(=O)N(C)C2CCCN(Cc3ccccc3F)C2)n(C)n1 (stereo not drawn) | 7 | 1 | 4.3 | 8 | 1 | 4519 | 16
O=C(c1cc(NC(=O)C23CC4CC(CC(C4)C2)C3)cc(NC(=O)C23CC4CC(CC(C4)C2)C3)c1)N1CCCCC1 | -1 | 14 | -4.5 | -18 | 4 | x | x
CCN(CC)c1ccc(C(=O)OCC(=O)Nc2sccc2C#N)cc1 | 12 | -3 | 6.0 | 2 | 8 | 2565 | -51
Clc1ccc(Oc2ccccc2)c2ncccc12 | 6 | 6 | 4.5 | -2 | -21 | 3552 | -7
COc1ccc2nc(NC(=O)Cc3ccc(OC)c(S(=O)(=O)N4CCOCC4)c3)sc2c1 | -10 | -11 | 2.5 | 2 | -5 | 4738 | -39
O=C(Nc1cccc(C(=O)O)c1)/C(=C\c1ccc2c(c1)OCO2)NC(=O)c1ccccc1Cl | 10 | 18 | 1.9 | 3 | 4 | 6111 | -15
O=C(NC1CCN(Cc2ccccc2)CC1)c1ccc(S(=O)(=O)NCc2ccco2)cc1 | 1 | 1 | 2.2 | -1 | -16 | 3395 | -5
